High-throughput results as filed in PubChem BioAssay.
gsp antag – antagonizes gsp, the McCune-Albright syndrome mutation. AID 624288. Potency, µM (doses to about 76.9 µM), for the others: top-dose activity change, negative = inhibition, hits mostly inhibitors. gsp-mutant cells, cAMP HTRF, 30 min; control for the full effect not named in the record. 340,000 tested, 0.4% active; active = falling curve of any shape with a large fitted effect; inconclusive = falling curve, mostly with a smaller effect; inactive = flat or rising curve; cell line not stated here;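 further: intracellular cAMP measured with PDE inhibitor Ro 20-1724 present during compound exposure; potency means the concentration at half of the fitted maximal effect; on the % scale 0 is the no-effect control and ±100 the full control effect; nearly all actives have a fitted effect of over 65% in size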
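Cells, 2000/well, grown 16–24 h in DMEM 10% FBS with 0.5 mg/ml G418, then compounds plus […] (300 uM addition stock), 30 min at 37C. cAMP read by HTRF (cAMP-d2 and anti-cAMP antibody-K in lysis buffer) after 30 min RT.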
Menin MLL FP FL – menin-MLL binding inhibition, fluorescein peptide. Fluorescence polarization, fluorescein-MLL peptide displacement from menin. AID 1766. FP activity change, % at 61.4 µM. 290,000 tested, under 10 active; inconclusive = falling polarisation curve, or a change in total fluorescence; inactive = total fluorescence flat and polarisation flat or rising; no compound was filed as active; the % refers to the polarisation; negative = inhibition;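 further: % of control where 0% means no effect; inhibitors lower the polarisation; unlabelled MLL peptide was the positive control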
gsp agonist – activates gsp, the McCune-Albright syndrome mutation | Potency, µM (top dose mostly 76.9 µM), for the others: at the top dose activation (cAMP increase), actives largely listed as activators | 340,000 tested, 0.13% active | gsp mutant cells, cAMP HTRF, 30 min; control for the full effect not named in the record | AID 624287; active = well fitted activation curve with a large enough effect; inconclusive = small, poorly fitted or top-dose-only effect, or another doubt; inactive = no such curve, though single readings can be large or run the other way; cell line not stated here;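 further: phosphodiesterase inhibitor Ro 20-1724 added with compounds to block cAMP breakdown; potency means the concentration at half of the fitted maximal effect; nearly all actives have a fitted effect of over 60% in size; about a fifth of the inactives were tested at one dose only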
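Cells stably selected in G418 were plated at 2000/well, grown 16-24 hr, then given compounds in DMSO with the PDE inhibitor […] (300 uM solution added) for 30 min at 37C; cAMP was read by HTRF.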
Sfp inh – Sfp phosphopantetheinyl transferase inhibition; Biochemical Sfp PPTase activity, qHTS; Potency, µM, inactives show max response, negative = inhibition, most hits filed as inhibitors; 310,000 tested, 3.5% active; active means well fitted inhibition curve with a large enough effect; inconclusive means small, poorly fitted or top-dose-only effect, or another doubt; inactive means no such curve, though single readings can be large or run the other way;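 further: the enzyme is Sfp with the accession as filed and its product quenches rhodamine fluorescence; potency means the concentration at half of the fitted maximal effect; 0% = enzyme reaction without inhibitor and -100% = no enzyme wells; top concentration of the series not given in the record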
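Fluorescence-quenching assay: 15 nM Sfp-PPTase preincubated 15 min at room temperature with compound, then 5 uM rhodamine-CoA and 12.5 uM BHQ-2-labelled YbbR peptide added. Fluorescence (ex 525/em 598 nm) read at start and after 30 min; difference gives rate.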
TRPV1 potentiator – enhances activation of the human vanilloid receptor TRPV1 | potentiation, % at 8.33 µM | TRPV1-expressing cells, Fluo-8 calcium influx, capsaicin EC20 potentiation; host cell line not named in the record; control for the full effect not named in the record | 320,000 tested, 0.02% active; active means potentiation above 80%; inconclusive means 30% to 80%; inactive means below 30%; further: 0% is about no effect
Target sequence (Q8NER1 whole entry, looked up): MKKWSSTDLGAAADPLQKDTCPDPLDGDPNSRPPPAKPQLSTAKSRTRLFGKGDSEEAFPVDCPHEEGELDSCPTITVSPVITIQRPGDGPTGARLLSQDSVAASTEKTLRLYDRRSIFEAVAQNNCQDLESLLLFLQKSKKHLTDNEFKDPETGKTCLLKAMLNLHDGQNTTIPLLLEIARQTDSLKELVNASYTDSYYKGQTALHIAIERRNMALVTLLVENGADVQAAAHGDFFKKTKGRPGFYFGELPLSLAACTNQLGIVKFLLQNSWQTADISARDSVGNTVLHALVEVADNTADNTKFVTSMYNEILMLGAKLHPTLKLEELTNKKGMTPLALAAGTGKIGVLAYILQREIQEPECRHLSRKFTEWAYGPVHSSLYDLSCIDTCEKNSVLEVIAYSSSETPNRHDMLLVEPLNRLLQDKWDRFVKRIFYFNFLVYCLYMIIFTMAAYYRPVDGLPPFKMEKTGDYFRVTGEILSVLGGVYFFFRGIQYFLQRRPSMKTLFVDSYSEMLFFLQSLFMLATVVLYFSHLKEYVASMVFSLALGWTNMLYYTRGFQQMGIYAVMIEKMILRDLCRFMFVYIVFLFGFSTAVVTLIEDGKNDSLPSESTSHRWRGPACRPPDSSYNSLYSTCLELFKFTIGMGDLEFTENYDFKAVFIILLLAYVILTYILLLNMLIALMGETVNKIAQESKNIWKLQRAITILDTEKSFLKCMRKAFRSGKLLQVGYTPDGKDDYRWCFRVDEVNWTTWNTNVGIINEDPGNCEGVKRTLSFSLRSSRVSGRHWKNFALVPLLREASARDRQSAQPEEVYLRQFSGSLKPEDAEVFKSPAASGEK
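Cells expressing TRPV1 were dye-loaded with Fluo-8 and read kinetically: 10 s baseline, 3 min after compound (agonist portion), then 2 min after EC20 capsaicin (allosteric enhancer portion). Calcium-bound dye fluorescence at 480/520 nm.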
TRPML1 blocker – blocks the human TRPML1 channel | Q9GZU1 | 390,000 tested, 0.02% active | TRPML1-inducible cells, Ca2+ dye fluorescence, FDSS; active compounds read low; inhibition of EC80 agonist-evoked calcium signal | activity change, negative = inhibition, % (no concentration beside the values); in the data active means activity change below about -50%; inconclusive means about -30% to -50%; inactive means above about -30%;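 further: stimulus is agonist 54-4 at its EC80 concentration; on the % scale 0 is the no-effect control and ±100 the full control effect; compound concentration not given in the record; the text of the record puts the active cut at -80%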
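Tet-induced TRPML1-DL cells loaded with Ca8 no-wash calcium dye were read kinetically on FDSS. Compound addition was followed by EC80 agonist 54-4 (4 uM final); inhibition was read over 110 s.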
ClpP mod – qHTS Assay for Activators of ClpP; ATP-dependent Clp protease proteolytic subunit (Bacillus subtilis (strain 168)), P80244; purified B. subtilis ClpP, FRET peptide cleavage, 20 min; Potency, µM (doses to about 57.5 µM), inactives show at the top dose activity change, negative = active; 340,000 tested, 1.9% active; active = well fitted falling curve with a large enough effect; inconclusive = small, poorly fitted or top-dose-only effect; inactive = no such curve, though single readings can be large or run the other way; further: potency means the concentration at half of the fitted maximal effect; the source files actives as falling curves though it sought activators and does not explain the sign; nearly all actives have a fitted effect of over 65% in size; many hits overshoot -100%
Target sequence (P80244 whole entry, looked up): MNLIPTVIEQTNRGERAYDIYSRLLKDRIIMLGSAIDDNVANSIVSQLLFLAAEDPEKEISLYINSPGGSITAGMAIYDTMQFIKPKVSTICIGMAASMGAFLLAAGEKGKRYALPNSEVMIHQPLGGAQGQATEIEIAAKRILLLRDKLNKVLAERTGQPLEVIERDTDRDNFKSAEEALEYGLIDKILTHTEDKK
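Buffer: 100 mM Tris/HCl pH8, 100 mM KCl, 0.05% low protease BSA, 2.5% glycerol, 0.01% Tween-20. ClpP 10 microg/mL final; 20 min RT; delta FRET normalized to ADEP and DMSO controls.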
* = called active by the depositor; ? = inconclusive; nt = no result given; & = joins results of further samples; [ ] = another dose, or the depositor's remark. Hits appear at their usual frequency; about 4.9% have a hit in one of these screens.

SMILES	gsp antag	Menin MLL FP FL	gsp agonist	Sfp inh	TRPV1 potentiator	TRPML1 blocker	ClpP mod
COc1ccc(-c2nn(CC(=O)N3CCCCC3)c(=O)c3ccccc23)cc1	nt	6.5	nt	6.4%	18.1	nt	nt
Cc1ccc(NC(=S)N/N=C/c2c(Cl)cccc2Cl)c(C)c1	20.3%	-0.7	-25.4%	22.8%	6.2	6.1	3.8%
CC(=O)Nc1cc2c(cc1NC(=O)Cn1nc(-c3ccccc3F)ccc1=O)OCCO2	-7.5%	1.9	?	15.7%	4.7	-2.1	-0.5%
CN(C)c1ccc(C=C2C(=O)OC(C)(C(C)(C)C)OC2=O)cc1 (stereo not drawn)	5.7%	13.0	4.5%	6.3%	5.1	-2.6	-4.9%
C[C@H](CO)N1C[C@H](C)[C@@H](CN(C)S(=O)(=O)c2cccs2)Oc2c(NS(=O)(=O)c3ccc(F)cc3)cccc2C1=O	-12.4%	nt	nt	nt	nt	-20.6	-1.4%
COc1cc(/C=N/N=C2/C(=O)Nc3ccccc32)ccc1O	3.9%	3.1	7.1%	1.7%	15.6	0.4	1.3%
Cc1ccccc1NC(=O)CN(C)S(=O)(=O)c1cccs1	10.0%	-2.6	7.3%[15.4 µM]	-11.8%	-1.4	1.4	-3.3%
O=C(/C=C/c1ccco1)N/C(=C\c1ccco1)C(=O)NCCc1nc2ccccc2[nH]1	0.8%	12.2	-39.1%[inhibitor]	50.1µM*	2.5	7.7	0.2%
COc1cc(C=O)c(Br)cc1OCC(=O)NCc1ccccc1	-1.0%	-0.8	3.0%	11.5%	13.9	-13.9	-7.5%
CC1CC(C)CN(C(=O)c2ccc(Br)c(S(=O)(=O)N3CCOCC3)c2)C1 (stereo not drawn)	-15.1%	nt	38.9%	nt	-14.9	10.3	0.3%
CC(C)OC(=O)CC12CN(C)CC(CC(=O)OC(C)C)(CN(C)C1)C2=O	4.3%	6.2	20.8%	8.3%	29.4	-0.4	7.6%
CNC(=O)c1[nH]cnc1C(=O)NCC(=O)OCc1ccccc1	-5.7%	3.0	-12.3%	8.5%	-0.3	-1.0	-0.9%
CO/N=C/c1cn(-c2ccc(Cl)cc2)nn1	0.1%	-0.8	3.7%[15.4 µM]	21.6%	-24.6	8.4	nt
Cc1ccccc1OC(C)C(=O)Nc1cccnc1 (stereo not drawn)	3.9%	nt	14.4%	14.1%	2.2	-15.5	-2.7%
COc1ccc(C(=O)NCC(=O)N/N=C/c2cccc(OC(=O)c3ccco3)c2)cc1OC	14.2%	1.1	?	17.4%	-10.1	-1.6	0.6%
CCOC(=O)c1csc(-c2sccc2Br)n1	10.0%	3.2	?	-13.6%	1.8	-6.8	-0.1%
O=C1CCN(CCCc2ccccc2)CCN1[C@H](CO)Cc1ccccc1	12.7%	-2.5	4.0%	7.7%	19.4	-23.5	-3.2%
O=C1CCC([N+](=O)[O-])C(c2ccccc2F)N1 (stereo not drawn)	10.4%	3.9	1.9%	25.9%	-1.0	nt	0.7%
Cc1ccccc1N(CC(=O)N1CCN(c2ccccc2)CC1)S(C)(=O)=O	-5.8%	1.3	-1.9%	-5.3%	9.2	-15.5	-2.0%
CC1CC2(CC(C)(C(=O)CSc3n[nH]c(-c4ccccc4Cl)n3)OC2=O)C(=O)O1 (stereo not drawn)	0.2%	-3.8	19.0%	-6.7%	10.7	-8.9	5.1%
CCCCCCC(=O)NC(Nc1ccc(S(N)(=O)=O)cc1)C(Cl)(Cl)Cl (stereo not drawn)	-6.9%	2.4	11.5%	18.3%	-13.3	0.9	-0.2%
CCCn1nnc(NC(=O)c2ccc(OC)cc2)n1	-6.2%	-0.8	6.2%	8.2%	-15.2	14.5	-0.3%
CCN(CC(=O)Nc1c(F)cccc1F)C(=O)CN(C)S(=O)(=O)c1ccc(F)cc1	8.3%	nt	-5.6%	nt	2.8	43.8	-9.2%
COc1ccc(CCNC(=O)Cn2c(=O)n(-c3cc(F)ccc3F)c(=O)c3sccc32)cc1OC	31.6µM*	4.0	-27.9%	15.7%	-2.7	37.7	0.0%
COc1cc(-n2c(C)nc3ncn(-c4ccccc4)c3c2=O)cc(OC)c1OC	nt	nt	3.2%	nt	nt	-0.8	4.0%
CC(=O)OCC(NC(=O)C(C)NC(=O)OC(C)(C)C)C1OC(n2ccc(=O)[nH]c2=O)C(OC(C)=O)C1OC(C)=O (stereo not drawn)	nt	-0.4	nt	-15.6%	nt	-3.3	nt
COc1cccc(CNC(=O)c2ccc(S(=O)(=O)N3CCCC3)cc2)c1	-5.7%	-2.3	?	2.7%	-25.7	-4.5	-0.6%
Cc1cc(C)n2nc(SCC#N)nc2n1	4.8%	2.3	0.6%	26.8%	-2.1	21.8	-2.0%
CCOC(=O)N1CCN(C(=O)CN(Cc2ccccc2)S(=O)(=O)c2ccc(OC)c(C)c2)CC1	-6.5%	1.8	-45.1%[inhibitor]	3.7%	-2.3	-6.5	-2.5%
CCN1C(=O)N[C@@H](c2cccc(F)c2)C(C(C)=O)=C1C	10.4%	-5.3[11.7 µM]	1.0%	6.9%	nt	-12.3	-3.5%
COc1ccc(CC(=O)Nc2nc(-c3ccncc3)cs2)cc1	12.1%	7.1	-20.1%[15.4 µM]	-15.4%	-13.7	1.7	nt
COc1cc(CN2CCN(CC3CC3)CC2CCO)cc(OC)c1 (stereo not drawn)	-7.7%	-2.7	1.0%[15.4 µM]	16.5%	18.2	-2.0	-0.3%
COc1ccc(O)c(/C=C2/SC(=S)N(Cc3ccccc3)C2=O)c1	9.9%	?	1.7%	?	17.1	nt	0.5%
COc1cc(S(=O)(=O)Nc2c(C)nn(C)c2C)ccc1NC(C)=O	14.3%	nt	23.6%	nt	0.6	-14.8	-0.7%
O=C(C1CCCO1)N1CCc2ccccc21 (stereo not drawn)	4.7%	2.6	0.0%	19.8%	27.0	1.4	-2.5%
CC(C)(C)NS(=O)(=O)c1ccc(NC(=O)C2CCCO2)cc1 (stereo not drawn)	4.0%	0.3	5.8%	9.7%	-0.3	-8.8	nt
COc1cccc(NC(=O)CSc2nnc(-c3cccnc3)o2)c1	5.6%	nt	-7.2%[15.4 µM]	nt	4.5	15.9	-1.2%
CC1CCC(C(=O)NC(C(=O)NCCN2CCC(C)CC2)C(C)C)CC1 (stereo not drawn)	4.4%	-4.6	?	18.3%	-0.3	3.5	-5.9%
Cc1nn(S(=O)(=O)N2CCOCC2)c(C)c1Br	2.1%	0.4	-34.7%[inhibitor]	18.5%	3.8	-2.5	nt
Cc1ncc(CO)c2cc(C(=O)Nc3cccc(F)c3)c(=Nc3cccc(C(N)=O)c3)oc12	?	-6.0	-61.0%[inhibitor]	2.3%	3.4	7.1	-0.7%
C[C@H]1CN([C@@H](C)CO)C(=O)Cc2cc(NC(=O)C3CC3)ccc2O[C@H]1CN(C)Cc1ccc(C(=O)O)cc1	6.6%	nt	-10.3%	nt	nt	-2.0	0.5%
COc1ccc(C)cc1Nc1n[n+](-c2ccccc2)c(-c2ccc(C(=O)O)cc2)s1	5.0%	0.3	3.1%	56.2µM*	-6.5	3.7	-1.6%
O=C(COc1ccc2ccccc2c1Br)Nc1ccncc1	-0.8%	nt	?	10.4%	0.3	20.4	-0.9%
C[C@@H]1CCC[C@]2(O[C@H](CCO)C[C@H](O)[C@H]2O)O1	3.8%	-0.6	nt	9.2%	?	-4.2	-3.0%
O=C(COC(=O)CNC(=O)c1sc2ccccc2c1Cl)Nc1cc(Cl)cc(Cl)c1	15.0%	-2.4	-17.9%[15.4 µM]	2.1%	-15.4	2.1	nt
COc1ccc(COC(=O)C2CCN(S(=O)(=O)c3cccs3)CC2)cc1	-21.1%	nt	-0.1%[15.4 µM]	nt	-7.9	57.8	0.4%
CCSc1nnc(NC(=O)CN2C(=O)NC3(CCCC3)C2=O)s1	5.7%	nt	7.1%	nt	-3.0	6.4	0.2%
CCOc1ccc(N=CNc2ccc(OCC)cc2)cc1	2.5%	-17.8	11.3%[15.4 µM]	5.9%	12.9	11.4	nt
COC(=O)C(C)N1C(=O)S/C(=C/c2cc(C)n(-c3ccccn3)c2C)C1=O (stereo not drawn)	-17.5%	2.7	-12.8%	1.8%	6.1	-8.0	-1.6%
CCCCCc1ccc(-c2cn(Cc3ccc4ccccc4c3)nn2)cc1	14.6%	4.4	nt	22.3%	-21.2	-7.1	-0.1%&0.4%
CC(=O)Nc1ccc(C=NNc2ccc(S(=O)(=O)Nc3ccccc3C(=O)O)cc2[N+](=O)[O-])cc1	-6.2%	nt	-12.4%	nt	nt	11.8	nt
N#CCCn1cc(C(=O)N2CCCCC2)c(-c2cccc([N+](=O)[O-])c2)n1	5.4%	-4.9	5.1%	17.5%	27.3	-17.7	0.7%
Cc1sc2nc(SCC(=O)Nc3ccc(S(=O)(=O)NCCCC(=O)O)cc3)[nH]c(=O)c2c1C	5.3%	1.0	5.5%[15.4 µM]	26.5%	1.1	4.2	nt
O=C(NCc1ccco1)C(Cc1ccccc1)NS(=O)(=O)c1cccc2nsnc12 (stereo not drawn)	-6.1%	2.2	-23.0%	4.9%	9.2	-14.5	3.1%
Cc1nn(CC(=O)c2ccccc2)c(=O)c2nn(-c3ccccc3F)c(C)c12	-13.6%	0.9	0.6%[15.4 µM]	-0.5%	9.3	13.8	?
CCOC(=O)N1CCN(CC(O)COc2ccccc2[N+](=O)[O-])CC1 (stereo not drawn)	5.6%	-11.0	22.0%	-0.1%	-6.4	-1.6	-0.3%
Cc1cc(NC(=O)CCCN2C(=O)/C(=C\c3cccs3)SC2=S)no1	-11.9%	-1.4	0.6%[15.4 µM]	-0.1%	-6.2	-13.0	-13.2%
Cc1nc2c3cc(F)ccc3n(Cc3ccccc3F)c2s1	-7.2%	5.5	3.9%[15.4 µM]	17.8µM*	-0.1	63.0	nt
